# CtBP-E1A blk: blocks the CtBP interaction with E1A. AlphaScreen GST-E1A/His-CtBP binding, 1536-well; hits give low values; control for the full effect not named in the record. activity change, % (no concentration beside the values). 340,000 tested, 0.49% active. AID 651724; in the data active means activity change below about -65%; inconclusive means about -30% to -65%; inactive means above about -30%; also: % is scaled to controls: 0 for no effect and ±100 for the full control effect; compound concentration not given in the record
#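 Homogeneous bead-based format: GST-tagged E1A captured on glutathione donor beads, His-tagged CtBP on nickel acceptor beads; compounds precede bead addition by 2 h at 37 °C.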
# gsp antag: antagonizes gsp, the McCune-Albright syndrome mutation; AID 624288; Potency, µM (series often up to 76.9 µM), without a hit: at the highest dose activity change, negative = inhibition, hits mostly inhibitors; 340,000 tested, 0.4% active; gsp-mutant cells, cAMP HTRF, 30 min; control for the full effect not named in the record; active = falling curve of any shape with a large fitted effect; inconclusive = falling curve, mostly with a smaller effect; inactive = flat or rising curve; cell line not stated here;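 also: intracellular cAMP measured with PDE inhibitor Ro 20-1724 present during compound exposure; potency is read from the fitted curve at half-maximal effect; % is scaled to controls: 0 for no effect and ±100 for the full control effect; nearly all actives have a fitted effect of over 65% in size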
#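 G418-selected cells were plated in DMEM/10% FBS for 16-24 h at 37C, then treated with compounds plus the PDE inhibitor […] (300 uM solution added) for 30 min at 37C. Intracellular cAMP was measured by HTRF after 30 min lysis at room temperature.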
# TRPV1 PAM: enhances activation of the human vanilloid receptor TRPV1; 320,000 tested, 0.02% active; potentiation, % at 8.33 µM; TRPV1-expressing cells, Fluo-8 calcium influx, capsaicin EC20 potentiation; host cell line not named in the record; control for the full effect not named in the record; active means potentiation above 80%; inconclusive means 30% to 80%; inactive means below 30%; also: 0% is about no effect
# Target sequence (Q8NER1 whole entry, looked up): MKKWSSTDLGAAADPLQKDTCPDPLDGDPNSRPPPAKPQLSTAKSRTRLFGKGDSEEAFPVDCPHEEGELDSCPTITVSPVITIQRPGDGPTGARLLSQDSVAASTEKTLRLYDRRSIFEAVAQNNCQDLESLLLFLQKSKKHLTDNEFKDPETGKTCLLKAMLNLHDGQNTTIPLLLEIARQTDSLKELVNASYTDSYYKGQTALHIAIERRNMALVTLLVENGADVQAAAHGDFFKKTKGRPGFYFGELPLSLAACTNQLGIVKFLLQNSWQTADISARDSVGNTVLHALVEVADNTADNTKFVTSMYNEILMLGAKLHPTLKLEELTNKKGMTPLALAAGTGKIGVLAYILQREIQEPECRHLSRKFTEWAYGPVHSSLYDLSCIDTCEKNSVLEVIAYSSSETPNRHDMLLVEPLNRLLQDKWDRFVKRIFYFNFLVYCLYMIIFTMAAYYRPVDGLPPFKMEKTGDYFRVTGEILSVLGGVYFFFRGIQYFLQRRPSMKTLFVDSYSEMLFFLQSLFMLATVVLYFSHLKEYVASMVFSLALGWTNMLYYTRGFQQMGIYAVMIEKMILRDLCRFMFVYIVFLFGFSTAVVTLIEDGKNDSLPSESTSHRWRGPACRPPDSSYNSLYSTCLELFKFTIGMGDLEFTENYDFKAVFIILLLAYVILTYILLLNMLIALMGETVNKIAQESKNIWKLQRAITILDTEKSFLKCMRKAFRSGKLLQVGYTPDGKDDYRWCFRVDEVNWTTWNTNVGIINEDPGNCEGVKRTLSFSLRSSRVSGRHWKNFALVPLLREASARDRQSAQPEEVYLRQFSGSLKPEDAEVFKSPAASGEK
#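 Fluo-8 calcium influx in TRPV1-expressing cells, kinetic read (ex 480/em 520 nm). Compound added and read 3 min for agonist activity, followed by capsaicin at EC20 final and 2 min further read for enhancement.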
# ClpP mod: qHTS Assay for Activators of ClpP | ATP-dependent Clp protease proteolytic subunit (Bacillus subtilis (strain 168)), P80244 | purified B. subtilis ClpP, FRET peptide cleavage, 20 min | Potency, µM (titrated, usually from 57.5 µM), without a hit: top-dose activity change, negative = active | 340,000 tested, 1.9% active | AID 651965, 2013; active = well fitted falling curve with a large enough effect; inconclusive = small, poorly fitted or top-dose-only effect; inactive = no such curve, though single readings can be large or run the other way; also: potency is read from the fitted curve at half-maximal effect; the source files actives as falling curves though it sought activators and does not explain the sign; nearly all actives have a fitted effect of over 65% in size; many hits overshoot -100%
# Target sequence (P80244 whole entry, looked up): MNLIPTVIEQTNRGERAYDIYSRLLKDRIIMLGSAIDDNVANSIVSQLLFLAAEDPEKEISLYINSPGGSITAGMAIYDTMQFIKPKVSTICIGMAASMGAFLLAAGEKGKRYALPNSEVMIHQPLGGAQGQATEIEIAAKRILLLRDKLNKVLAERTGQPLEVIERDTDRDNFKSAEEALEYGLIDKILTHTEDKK
#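 Purified B. subtilis ClpP, 10 microg/mL final in Tris/HCl pH8 with KCl, BSA, glycerol and Tween-20, cleaved an Abz/nitrotyrosine-quenched decapeptide. Fluorescence (ex 320, em 430) was read at 0 and 20 min at room temperature. Delta was normalized to 5.8 microM ADEP and DMSO/no-enzyme controls.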
# gsp agonist: agonists of gsp mutant (McCune-Albright syndrome). 340,000 tested, 0.13% active. gsp mutant cells, cAMP HTRF, 30 min; control for the full effect not named in the record. Potency, µM (top dose mostly 76.9 µM), for the others: at the top dose activation (cAMP increase), hits mostly activators; active = well fitted activation curve with a large enough effect; inconclusive = small, poorly fitted or top-dose-only effect, or another doubt; inactive = no such curve, though single readings can be large or run the other way; cell line not stated here;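 also: phosphodiesterase inhibitor Ro 20-1724 added with compounds to block cAMP breakdown; potency is read from the fitted curve at half-maximal effect; nearly all actives have a fitted effect of over 60% in size; about a fifth of the inactives were tested at one dose only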
#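 Cells in DMEM/10% FBS with G418 were pretreated with compounds in DMSO plus […] (300 uM stock) for 30 min at 37C. cAMP was measured by HTRF (cAMP-d2 plus anti-cAMP antibody-K) after 30 min at room temperature.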
# Sfp PPTase inh: blocks B. subtilis Sfp PPTase activity; Q9F4F7; Biochemical Sfp PPTase activity, qHTS; 310,000 tested, 3.5% active; AID 1490; Potency, µM, for inactives: max response, negative = inhibition, most hits filed as inhibitors; active = well fitted inhibition curve with a large enough effect; inconclusive = small, poorly fitted or top-dose-only effect, or another doubt; inactive = no such curve, though single readings can be large or run the other way;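 also: the enzyme is Sfp with the accession as filed and its product quenches rhodamine fluorescence; potency is read from the fitted curve at half-maximal effect; 0% = enzyme reaction without inhibitor and -100% = no enzyme wells; top concentration of the series not given in the record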
#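 Compounds were incubated with enzyme (final 15 nM) for 15 min at room temperature before substrate addition started the reaction. Fluorescence at 525 nm excitation, 598 nm emission was recorded immediately and after 30 minutes.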
# Menin MLL FP FL: menin-MLL binding inhibition, fluorescein peptide; Fluorescence polarization, fluorescein-MLL peptide displacement from menin; FP activity change, % at 61.4 µM; 290,000 tested, under 10 active; AID 1766; inconclusive = falling polarisation curve, or a change in total fluorescence; inactive = total fluorescence flat and polarisation flat or rising; no compound was filed as active; the % refers to the polarisation; negative = inhibition;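 also: % of control where 0% means no effect; inhibitors lower the polarisation; unlabelled MLL peptide was the positive control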
# * marks the source's active call; other numbers are inactive results; ? = inconclusive; · = no result given; & = joins results of further samples; [ ] = dose if it differs, or a comment.
SMILES,CtBP-E1A blk,gsp antag,TRPV1 PAM,ClpP mod,gsp agonist,Sfp PPTase inh,Menin MLL FP FL
COc1cccc(C(=O)NCCS(=O)(=O)N2CCCCC2)c1,-18,13%,-5,-3.0%,-10%,·,·
CS(=O)(=O)c1cccc(C(=O)OCC(=O)NC(=O)Nc2ccccc2F)c1,3,6%,·,·,-1%,·,·
O=[N+]([O-])c1nn(-c2ccc3c(c2)OCCO3)n(O)c1=NCc1ccccc1Cl,-1,7%,20,-2.6%,-17%,-3%,?
CCOc1ccc(C(=O)Nc2nc(C)cc(C)n2)cc1[N+](=O)[O-],-8,8%,18,-1.2%,?,18%,0.2
CSCC[C@H](NC(=O)Cc1c(C)c2c(cc(C)c3c(C)c(C)oc32)oc1=O)C(=O)O,·,-4%,-15,-30%,?,9%,4.5
O=C(O)C1C(c2ccccc2)=C1c1ccc(Br)cc1 (centres undefined),3,·,·,-11%,-7%,·,·
C[C@H](CO)N1C[C@H](C)[C@@H](CN(C)C)Oc2c(NC(=O)C3CC3)cccc2C1=O,7,1%,·,-1.5%,·,·,·
CCOC(=O)C1CCN(C(=O)C(C)N(c2ccc(Oc3ccccc3)cc2)S(C)(=O)=O)CC1 (centres undefined),·,-25%,4,-1.1%,2%,-2%,-0.1
O=C(CCCO)NC1Cc2ccccc2C1,5,1%,5,·,18%[15.4 µM],9%,-0.6
O=C(Nc1ccc(N2CCN(C(=O)c3ccco3)CC2)c(Cl)c1)c1c(F)c(F)c(F)c(F)c1F,10,-4%,-4,0.7%,-6%[15.4 µM],5%,0.9
O=C1Cc2ccccc2N1c1c(Cl)cccc1Cl,7,1%,-1,-0.6%,-17%,1%,0.0
COc1ccc(NS(=O)(=O)c2ccc3oc(SC4CCOC4=O)nc3c2)cc1 (centres undefined),5,2%[15.4 µM],-3,-2.0%,0%,-1%,-1.4
CC(=O)N1CCc2cc(Br)cc(S(=O)(=O)NCC3CCCO3)c21 (centres undefined),4,6%,-12,-0.7%,15%,12%,2.6
COc1ccc(OC)c2[nH]c(=O)c(CCNC(=O)Cc3cccs3)cc12,·,-5%,-33,-6.2%,-54%[inhibitor],7%,0.0
CN1C(C(=O)NCc2cccc(Br)c2)CC2Cn3c(nc4cc5ccccc5cc43)C21 (centres undefined),0,-23%,5,-10%,-41%[inhibitor],8%,1.0
COc1ccc(-c2cn(CCN)c(-c3ccncc3)n2)cc1,-2,2%,-3,-1.4%,0%,·,·
O=C(CCS(=O)(=O)c1ccc(Cl)cc1)Nc1ccc(N2CCOCC2)cc1,8,1%,17,·,9%[15.4 µM],9%,4.8
C=C(C)c1cccc(C(C)(C)NC(=O)N2CC(C)OC(C)C2)c1 (centres undefined),4,-2%,-1,-0.6%,?,1%,0.7
O=C(NC1CCN(Cc2ccccc2)CC1)C(NS(=O)(=O)c1cccc2nsnc12)c1ccccc1 (centres undefined),-1,2%,-1,1.3%,-54%[inhibitor],14%,-3.6
CCc1ccccc1NC(=O)CSc1n[nH]c(-c2cccnc2)n1,7,0%,-44,·,11%,14%,4.2
COc1cccc(/C=C/C(=O)OCC(=O)N2c3ccccc3CC2C)c1OC (centres undefined),-2,-19%,15,-0.1%,17%[15.4 µM],·,·
COc1ccc(C(CCN)Cc2ccccc2)cc1 (centres undefined),5,-3%,5,·,10%[15.4 µM],9%,1.1
O=[N+]([O-])c1ccc(OCCn2cnc3ccccc32)cc1,-13,·,11,·,1%[15.4 µM],21%,-2.0
N#Cc1cccc(-c2cn(S(=O)(=O)c3ccc(Cl)cc3)nc2N)c1,-8,-6%,2,1.8%,17%,1%,5.1
ON=C1c2cc(OCCN3CCCCC3)ccc2-c2ccc(OCCN3CCCCC3)cc21,4,3%,4,-0.3%,-4%[15.4 µM],-9%,-0.5
COc1ccc(OCCN2CCN(C(=O)c3ccc(OC(F)F)c(OC)c3)CC2)cc1,3,-16%,-15,·,21%,-6%,-1.4
c1ccc(C[C@H]2CNCCN2CC2CCCCC2)cc1,0,8%,24,2.2%,·,·,·
CN(CCc1ccccc1)C(=O)c1cccc(NC(=O)Cc2cccc(NC(=O)C3CCN(C(=O)C4CCCCC4)CC3)c2)c1,3,3%,·,-0.5%,·,·,·
COc1ccc(NC(=S)NN2CCN(C)CC2)cc1OC,-18,7%,-7,-1.6%,-1%,-6%,5.7
COc1cc(NC(=O)Cn2nnc(-c3ccncc3)n2)cc(OC)c1,9,-11%,5,-20%,-44%[inhibitor],11%,1.7
Cn1cccc1/C=C1\SC(=O)N(c2ccccc2)C1=O,1,-8%,-16,-4.8%,-15%,-1%,?
CC1OC(c2ccccc2)OC2COC(c3ccccc3)OC12 (centres undefined),12,13%,·,·,0%,·,·
CN(Cc1ccccc1)C(=O)Cn1c(=O)c2cccn2c2cccnc21,·,-3%,-10,4.1%,6%,8%,·
Cc1nnc(NC(=O)c2cccc(S(=O)(=O)N3CCOCC3)c2)s1,6,-8%,7,0.7%,-1%,12%,-3.5
COc1ccc(C(CNc2ncnc3sc(C)c(C)c23)N(C)C)cc1 (centres undefined),-26,-4%,5,·,6%,20%,·
CC(=S)/C=C1\Sc2ccccc2N1C,-1,-10%,4,-0.5%,-2%,45µM*,6.6
O=C(O)c1ccc(N2C(=O)C3C4c5ccccc5C(Br)(c5ccccc54)C3C2=O)cc1 (centres undefined),0,-19%,6,·,-25%[15.4 µM],9%,1.7
N#CC1=C(SCc2ccccc2)NC(=O)CC1c1cccc(O)c1 (centres undefined),6,-2%,-4,0.5%,14%,-17%,-3.2
COCCCn1c(SCC(=O)c2ccccc2)nc2ccccc2c1=O,-8,·,-7,·,-1%[15.4 µM],-3%,-4.5
Cc1ccnc(NS(=O)(=O)c2cccc([N+](=O)[O-])c2)c1,·,-4%,11,-3.8%,20%,7%,0.9
Nc1nonc1-n1nnc(C(=O)N/N=C/c2ccoc2)c1-c1ccccc1,0,-15%,-2,-0.3%,3%[15.4 µM],15%,1.7
O=S(=O)(NC1CC(NS(=O)(=O)OCC(Cl)(Cl)Cl)C2CCCCC12)OCC(Cl)(Cl)Cl (centres undefined),1,-12%,-4,1.5%,·,5%,8.0
CC(NC(=O)COC(=O)C1=NN(c2ccccc2)C(=O)CC1)c1ccccc1 (centres undefined),0,11%,27,-0.4%,1%[15.4 µM],·,·
CCn1nnc(NC(=O)c2cccc(-c3cc4ccccc4oc3=O)c2)n1,-13,-15%,-16,14µM*,-2%,0%,-2.4
CC(=O)C1CCC2C3CCC4=CC(=O)CC[C@]4(C)[C@@]3(F)C(O)C[C@]12C (some centres undefined),-3,11%,-10,·,-22%,15%,1.9
CN(C)CCn1c(=O)n(-c2cccc(Cl)c2)c(=O)c2c3c(sc21)CCCCC3,-24,-14%,-8,·,-11%[15.4 µM],2%,2.6
CC1(C)CC(=O)C(C=NCCc2ccc(O)cc2)=C(O)C1,-1,2%,-1,-2.3%,10%,3%,1.6
O=C(CSc1nnc(CNC(=O)c2c(F)cccc2F)o1)NCc1ccco1,-1,4%,17,-2.3%,?,11%,2.9
CCOC(=O)C1CCN(C(=O)c2cc3c(s2)-c2ccccc2OC3)CC1,13,-9%,1,4.2%,?,5%,-3.6
CNC(=O)N(c1ccccc1)c1ccccc1,4,-3%,21,0.7%,33%,9%,4.2
Cn1nc(C(F)(F)F)c(-c2ccccc2)c1NC(=O)c1ccco1,·,-1%,-2,-0.4%,4%,15%,-2.0
CC1(C(=O)N2CC3(CC(c4ccccc4)=NO3)C[C@H]2C(=O)NCC(N)=O)CC1 (some centres undefined),2,7%,8,-3.4%,?,3%,0.1
O=C(NCc1ccco1)c1nc2ccccc2s1,4,3%,-2,-1.8%,-16%,23%,-0.5
COc1ccc(S(=O)(=O)Nc2nnc(Cc3ccc(OC)c(OC)c3)s2)cc1,0,-15%,4,·,23%[15.4 µM],50µM*,3.1
O=C1CC(N2CCN(Cc3ccccc3)CC2)C(=O)N1 (centres undefined),·,13%,-1,-2.0%,-2%,15%,-3.8
O=C(Nc1ccc(-c2cnco2)cc1)c1ccc(Cl)cc1,·,13%,-12,20%,?,27%,0.6
O=C(Nc1ccccc1N1CCOCC1)c1cc(-c2ccco2)nc2ccccc12,-21,-26%,-16,-6.3%,-29%,-16%,2.2
O=C(COC(=O)c1cc[n+]([O-])cc1)Nc1ccc(F)c([N+](=O)[O-])c1,0,-11%,0,-1.3%,-36%[inhibitor],-7%,6.0
CCNC(=O)c1c(NC(=O)c2cc(-c3cc(C)ccc3O)n[nH]2)sc2c1CCCC2,4,-3%,15,·,-16%[15.4 µM],-8%,·
Cc1ccc(C(C)NC(=O)COC(=O)C2=COCCO2)cc1C (centres undefined),·,9%,2,0.1%,18%,·,·
# Remaining list, next part
SMILES,CtBP-E1A blk,gsp antag,TRPV1 PAM,ClpP mod,gsp agonist,Sfp PPTase inh,Menin MLL FP FL
CSc1ncc(C(=O)Nc2cccnc2)c(C(F)(F)F)n1,4,12%,-2,-3.7%,16%,4%,5.3
COc1cccc(CN(CCC(C)C)S(=O)(=O)c2cc(Br)ccc2Br)c1,18,-2%,·,0.2%,·,·,·
Cc1cc(SCC(=O)N/N=C/c2ccc(C(=O)O)cc2)nc2ccccc12,4,-10%,8,·,?,10%,-4.4
Cc1cccnc1NC(=O)C1CCC1,1,5%,1,-0.9%,7%[15.4 µM],14%,-1.3
CCC/C=C(\CCC)C(NS(=O)(=O)c1cccc2cccnc12)c1ccc(C(=O)OC)cc1 (centres undefined),0,-8%,-4,-1.1%,-5%,7%&13%,-0.6&-2.3
Cc1nn(-c2ccccc2)c2c1C(c1ccncc1)C(C#N)=C(N)O2 (centres undefined),-14,-3%,14,1.7%,-43%[inhibitor],?,2.4
Cc1ccc(NC(=O)c2nc[nH]c2C(=O)N(C)CCO)cc1,-8,·,·,0.1%,?,·,·
CC(C)(C)c1ccc(OCC(=O)NCC(c2cccs2)N2CCOCC2)cc1 (centres undefined),1,-19%,2,·,21%[15.4 µM],·,·
